NPYLR7 agonist = activates Aedes aegypti NPYLR7 receptor. HEK293T NPYLR7/Galpha15, GCaMP6s calcium fluorescence. activation, % at 10 µM. 270,000 compounds, 0.15% hits. AID 1259423; in the data active means activation above about 40%;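 further: 0% = vehicle and 100% = reference agonist at the receptor; some compounds past the cut are filed as inactive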
NPYLR7 agonist max-min = further read-out of NPYLR7 agonist, marked with its call; activation, %; measured here: Max-Min RFU normalised activation; some inactives read as strong as hits;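 span of the calcium signal over five minutes; 0% = vehicle and 100% = native peptide agonist; compound fluorescence can raise it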
* hit, by the source's call. A portion of the library, so the mix of outcomes need not match the whole.

SMILES	NPYLR7 agonist	NPYLR7 agonist max-min
Cc1cc(N)nc(SCC(=O)Nc2ccc(C#N)cc2)n1	2	-1
Cc1noc(C)c1CCCNC(=O)c1ccc(N(C)C2CCOC2)nc1 (stereo not drawn)	-2	-7
O=C1CC2(CCCC2)C(=O)N1CN1CCN(S(=O)(=O)c2ccc(F)cc2F)CC1	10	10
COc1ccccc1N1CC(C(=O)N2CCCC(c3nc4ccccc4s3)C2)CC1=O (stereo not drawn)	2	5
O=C(CC1CC2CCC1C2)N=c1ccccn1Cc1ccccc1 (stereo not drawn)	9	6
Cc1nc2nc(N)nn2c(C)c1CCC(=O)OCC(=O)NC1CCCCCC1	0	14
CCCc1nc(N2CCCN(C(=O)/C=C/c3ccccc3)CC2)c2c(C)nn(-c3ccccc3)c2n1	9	12
COc1cccc(N/C=C(\C#N)C(=O)N2CCOCC2)c1	-1	-4
CN(C(=O)CCC1CCCC1)C1CCC2(CC1)OCC(C)(C)CO2	-8	-14
Cn1nnnc1SCC(=O)Nc1sccc1C(N)=O	0	0

In another format: entries from further up.
SMILES | NPYLR7 agonist | NPYLR7 agonist max-min
COc1ccccc1N1CC(C(=O)N2CCCC(c3nc4ccccc4s3)C2)CC1=O (stereo not drawn) | 2 | 5
O=C(CC1CC2CCC1C2)N=c1ccccn1Cc1ccccc1 (stereo not drawn) | 9 | 6
Cc1nc2nc(N)nn2c(C)c1CCC(=O)OCC(=O)NC1CCCCCC1 | 0 | 14
CCCc1nc(N2CCCN(C(=O)/C=C/c3ccccc3)CC2)c2c(C)nn(-c3ccccc3)c2n1 | 9 | 12
COc1cccc(N/C=C(\C#N)C(=O)N2CCOCC2)c1 | -1 | -4
CN(C(=O)CCC1CCCC1)C1CCC2(CC1)OCC(C)(C)CO2 | -8 | -14
Cn1nnnc1SCC(=O)Nc1sccc1C(N)=O | 0 | 0

Other results follow:
SMILES	NPYLR7 agonist	NPYLR7 agonist max-min
CCCCCCc1ccc(C(=O)N2CCN(C(=O)c3cc(-c4ccccc4)n(-c4cccc(OC)c4)c3C)CC2)cc1	-10	1
COc1ccc(-c2nc3scc(CCNC(=O)/C=C/c4ccc(OC)c(OC)c4)n3n2)cc1	2	2
CCc1nnc(N2C(=O)c3ccccc3C2(O)c2ccccc2)s1 (stereo not drawn)	14	10
COc1cccc(C2CCCN2S(=O)(=O)N2CCc3ccccc3C2)c1 (stereo not drawn)	0	-1
N#CCC(=O)Nc1nc2ccccc2nc1Cl	-1	-1
COc1ccc(NC(=O)CCN(Cc2ccco2)c2nc(-c3cccs3)nc3ccccc23)cc1	17	19
Cc1ccc(Cl)cc1Nc1ncccc1C(=O)NCc1ccc2c(c1)OCO2	-8	-11
CC(C(=O)NCc1cc(Br)ccc1OC(F)F)n1cncn1 (stereo not drawn)	2	2
Cc1nc2c(OCC(=O)N3CCOCC3)cccn2c1N(C)C(=O)CCC1CCCC1	-12	-17
COc1ccc(-c2nc3sc(CCNS(=O)(=O)c4ccc(C)cc4)c(C)n3n2)cc1	2	-1
CNC(=O)CN1C(=O)CCN(C(=O)OCC(C)C)CC(OC)c2ccccc21 (stereo not drawn)	6	13
COc1ccc(C(=O)N2CCC(C(NC(=O)c3ccccc3Cl)C(=O)N3CCCCC3)CC2)cc1 (stereo not drawn)	2	5
Cc1nc(-c2ccccc2)nc(N2CCN(C(=O)c3ccc4c(c3)OCO4)CC2)c1Cc1ccc([N+](=O)[O-])cc1	1	11
CC(C)C1NC(=O)NC1=O (stereo not drawn)	4	5
CCCCCCC[N+](CC)(CC)CCCCc1ccc(Cl)cc1	-4	-5
Cc1ccc2c(c1)C1(NCCS1)C(=O)N2Cc1ccccc1Cl (stereo not drawn)	24	27
COc1ccc2c(c1)CCc1c(-c3ccc(C(=O)N(C)Cc4cc(OC)c(OC)c(OC)c4)cc3)n[nH]c1-2	25	10
Cc1onc(-c2ccccc2)c1C(=O)N1CCN(C)CC1	2	0
CC(C)C(=O)Nc1nc2c(F)cc(F)cc2s1	3	-3
Cn1c(=O)c2c(nc(N3CCCCCC3)n2CCCc2ccccc2)n(C)c1=O	0	19
O=C(C=Cc1cc2cc3c(cc2nc1Cl)OCCO3)c1cccs1	11	15
O=C(Nc1ccc2c(c1)OCO2)C1=CN2CCN(Cc3cscn3)C(=O)N=C2O1	0	-1
O=C(CN1C(=O)NC2(CCCCCCC2)C1=O)c1ccc(Cl)s1	-3	-3
COc1cc(-c2nc(C=Nc3cccc(Cl)c3)c(O)o2)cc(OC)c1OC	-13	-22
Cc1cccc(Oc2cc(N3CCc4ccccc4C3)ncn2)c1	-8	8
CN(C)c1ccc(-c2nc3ccccn3c2NC(C)(C)CC(C)(C)C)cc1	-7	-7
CNc1snc(C)c1C#N	4	2
CCOc1ccc(-c2cc(C)n3nc(C(=O)N4CCOCC4)cc3n2)cc1	-7	-14
O=C(c1c(C(F)(F)F)ccc(Cl)c1F)N1CCN(c2nccc(-c3cccc(C(F)(F)F)c3)n2)CC1	-10	-12
CC(/C=C1\N=C(c2ccc(Cl)c(Cl)c2)OC1=O)=C\c1ccccc1	0	-3
Cc1cc(OCC(=O)Nc2ccc(F)c(F)c2)nc(C(C)C)n1	-6	-5
Cc1nn(C)cc1CN(C)Cc1nc(Cc2ccccc2F)no1	17	4
Cc1cnccc1CN(C)Cc1cc2ccccc2o1	0	-3
CCN1CCN(C(=O)c2cnn(-c3ccc(Cl)cc3)c2-c2ccccc2)CC1	36	42
Cc1nc2sc(C)c(C)n2c(=O)c1NC(=O)c1ccncc1	30	23
Cn1cc(S(=O)(=O)N2CCN(S(=O)(=O)c3ccc(C(C)(C)C)cc3)CC2)cc1C(N)=O	0	1
CC(C)(C)c1cc(=O)n2[nH]cc(-c3ccc(Cl)cc3)c2n1	3	4
COC(=O)[C@@H]1[C@@H](NC(=O)NC(C)C)CCN1C(C)=O	-10	-18
COc1ccc(C(=O)N2CCN(C(C(=O)Nc3ccc(OC)c(OC)c3)C3CCCC3)CC2)cc1 (stereo not drawn)	-2	3
C=CCN(Cc1ccccc1)C(=O)c1cc(N)n[nH]1	-2	-6

4 entries already listed, ordered by SMILES length, lowest first.
SMILES	NPYLR7 agonist	NPYLR7 agonist max-min
Cc1cnccc1CN(C)Cc1cc2ccccc2o1	0	-3
C=CCN(Cc1ccccc1)C(=O)c1cc(N)n[nH]1	-2	-6
Cc1cc(OCC(=O)Nc2ccc(F)c(F)c2)nc(C(C)C)n1	-6	-5
CCN1CCN(C(=O)c2cnn(-c3ccc(Cl)cc3)c2-c2ccccc2)CC1	36	42

New compounds follow.
SMILES	NPYLR7 agonist	NPYLR7 agonist max-min
CCn1c(C2CCNCC2)nn(CC2CN(Cc3ccccc3)CCO2)c1=O (stereo not drawn)	6	2
O=C(C=Cc1ccc2c(c1)OCO2)c1ccc(Br)cc1	1	0
COc1ccc(-n2c(Cc3ccccc3)nnc2SCc2ccc(C(=O)NC3CC3)cc2)cc1	-9	-1
O=C(N/N=C\c1ccc(O)cc1)c1ccc(=O)[nH]n1	-3	-2
CC(=O)C1(C)ON=C2c3ccccc3CCC2N1O (stereo not drawn)	17	8
CC1(C(=O)n2ncnc2N)CC1(Br)Br (stereo not drawn)	-5	-6
Cn1cc(C(=O)N2CCOCC2)cc(NC(=O)c2cc(Cl)ccc2Cl)c1=O	-9	-14
Cc1cc(CNC(=O)C(C)Cn2nc(C)nc2C)c2[nH]c(C)c(C)c2c1 (stereo not drawn)	17	12
CN(C)c1ncccc1CNC(=O)c1ccc(Cn2ccnc2)o1	7	4
COc1ccc(CC(=O)Nc2ccc(-n3nc(OCC(C)C)nc3-c3ccccc3C)cc2)cc1	-6	2
O=C(c1ccc(Oc2ccccc2)cc1)C1CCCN(C(=O)CCN2CCCCC2=O)C1 (stereo not drawn)	3	3
Oc1ccc(-n2nnnc2SCc2nc3ccccc3o2)cc1	5	0
O=C1CC(c2ccc3c(c2)OCCO3)Oc2ccc(Br)cc21 (stereo not drawn)	-8	-15
CC1(C(=O)NS(=O)(=O)Cc2ccccc2)CCN1C(=O)CC(c1ccccc1)c1ccccc1 (stereo not drawn)	-4	-12
Clc1ccc(NCCc2cccs2)nn1	10	3
Fc1ccc(C2=NOC(CNCc3ccccc3Cl)C2)cc1 (stereo not drawn)	-3	-9
